From PubChem BioAssay
OX1R antag = OX1R (HCRTR1) antagonists, primary screen, fluorescence, CHO/OX1R cells, Fluo-8 calcium, orexin A; Fluo-8 calcium fluorescence; inhibition, % at 5 µM; 330,000 tested, 0.43% active; AID 434989, 2010;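 active means inhibition above its plate's threshold, mean inhibition of all tested compounds on the plate plus 3 SD, cut at about 37% in these data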;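 further: 0% = orexin A challenge wells and 100% = SB-334867-A antagonist wells; not every result past the cut was called active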
Target sequence (O43613 whole entry, looked up): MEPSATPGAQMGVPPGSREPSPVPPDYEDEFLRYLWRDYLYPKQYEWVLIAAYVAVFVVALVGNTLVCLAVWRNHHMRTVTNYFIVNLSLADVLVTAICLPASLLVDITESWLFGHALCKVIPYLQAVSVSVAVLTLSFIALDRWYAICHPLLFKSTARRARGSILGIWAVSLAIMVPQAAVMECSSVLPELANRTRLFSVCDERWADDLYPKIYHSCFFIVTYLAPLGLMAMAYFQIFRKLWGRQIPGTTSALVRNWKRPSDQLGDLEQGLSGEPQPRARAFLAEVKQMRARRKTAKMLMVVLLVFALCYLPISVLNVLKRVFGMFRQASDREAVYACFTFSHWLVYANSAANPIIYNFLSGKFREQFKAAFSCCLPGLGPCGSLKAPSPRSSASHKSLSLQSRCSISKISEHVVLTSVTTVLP
Active calls of the source: *. The list is partial; most or all hits stand in other tables.

OX1R antag	SMILES
-18	CCOC(=O)N1CCN(C(=O)CS(=O)(=O)Cc2nc(-c3ccccc3F)oc2C)CC1
-18	Cc1ccc(Cn2ccc(NC(=O)c3cc(-c4ccco4)on3)n2)cc1
-15	Cc1ccc(-c2cn(CCN)c(-c3ccncc3)n2)cc1
-24	O=C(Nc1ccc2c(c1)OCO2)C1CC(=O)N(CCc2ccccc2)C1 (centres undefined)
-11	O=C(/C=C/c1cccc(Cl)c1)Nc1ccncc1
-7	Cc1nc(NCc2ccccc2)c2cc[nH]c2n1
1	COc1ccc(Cl)cc1NC(=O)CCc1nnc2ccc(N3CCN(C)CC3)nn12
-5	CC1CCCC(C)N1C(=O)COc1ccc(-c2nnco2)cc1 (centres undefined)
13	Cc1ccc2c(C(=O)CN3CCCC3)c(C)[nH]c2c1
-4	Cc1ccc(NC(=O)Cn2cncc2-c2ccc([N+](=O)[O-])cc2)cc1C
-2	CCOC(=O)C(Oc1ccc2c(-c3ccccc3)cc(=O)oc2c1)c1ccccc1 (centres undefined)
-7	Cc1cccc2cc(C3CC(c4ccco4)=NN3C(=O)CCC(=O)O)c(Cl)nc12 (centres undefined)
-25	COc1ccc(C2SCC(=O)N2c2nnc(C34CC5CC(CC(C5)C3)C4)s2)cc1 (centres undefined)
-19	COc1cccc(CN2CCCC(C(=O)N3CCCCC3)C2)c1OC (centres undefined)
-26	CC(=O)N1c2c(cc(Br)cc2S(=O)(=O)NCc2ccc3c(c2)OCO3)CC1C (centres undefined)
-27	CCCCc1cc(C)c(S(=O)(=O)c2ccccc2C)c(=O)[nH]1
-9	COc1cc(C=O)c(Br)cc1OCC(=O)NCc1ccccc1
-18	C/C(=N\NC(=O)C1CCCC1)c1ccc(C(C)C)cc1
-43	CCc1cc2cc3c(cc2nc1SCC(=O)N1CCN(C(=O)c2ccco2)CC1)OCO3
-21	CCCCc1nnc(NC(=O)c2cccc(S(=O)(=O)N3CCN(C)CC3)c2)s1
-17	CC(=O)Nc1ccc(S(=O)(=O)N2CCC(C(=O)O)(c3ccccc3)CC2)cc1
8	COc1cccc(N=Cc2nc(-c3ccccc3)oc2OC(C)=O)c1
12	CC1=CC=CN2C1=NC(=O)CC2(C)C(=O)N(CC(=O)NC1CCCC1)Cc1ccccc1 (centres undefined)
-14	Cc1ccc(Cn2ncc3c(N4CCN(c5ccc(C)cc5)CC4)ncnc32)cc1
-34	COc1ccc(C2=NN(C(=O)c3ccco3)C(c3ccco3)C2)cc1OC (centres undefined)
-4	Cc1ccccc1C(=O)NC(=S)NCCN1CCOCC1
-16	COc1ccc(C(=O)NCCC2=CCCCC2)cc1[N+](=O)[O-]
-9	COc1ccccc1OCCOCCN1CCCC1
-23	COc1ccc(C(C)=O)cc1COC(=O)c1cccnc1Cl
-11	CC(C)(Oc1ccc(Cl)cc1)C(=O)N1CCN(c2ccccn2)CC1

Next structures.
OX1R antag	SMILES
4	CC(C)CCNC(=O)C(=O)Nc1ccc2c(c1)N(S(=O)(=O)c1cccs1)CCC2
-5	O=c1[nH]nnc2c1sc1nc(N3CCOCC3)c3c(c12)CCCC3
2	O=C(NNC(=O)C1[C@H]2CCCC[C@@H]12)NC1CCCCC1 (some centres undefined)
-27	Cc1ccc(C(=O)C2C(=O)c3ccccc3C2=O)cc1
-28	COc1ccc(-c2nc(C)ncc2N=Nc2ccccc2)cc1
-17	O=C(COC(=O)C1CC1)NCc1ccccc1Cl
-21	S=c1[nH]nc2c3c4c(sc3ncn12)CCCC4
-29	O=C(CSc1nnc(-c2cnccn2)n1Cc1ccco1)c1ccc2ccccc2c1
-20	COc1ccc(NC(=O)C2OC3OC(C)(C)OC3C3OC(C)(C)OC23)cc1 (centres undefined)
-30	Cc1ccc(/C=C/C(=O)NC(=S)N2CCN(C)CC2)cc1
-11	CC(Nc1nc(N2CCOCC2)nc2ccccc12)c1ccccc1 (centres undefined)
-29	CC(NC(=O)c1ccc(Cn2cc([N+](=O)[O-])cn2)o1)c1ccccc1 (centres undefined)
-14	CCNC(=O)COC(=O)/C=C/c1cccc(F)c1
5	N=c1n(CCCOc2ccccc2Cl)c2ccccc2n1CC(N)=O
-39	CCCn1nc(NC(=O)c2ccco2)c2cc3cc(C)ccc3nc21
-1	O=C(COC(=O)c1ccccn1)Nc1cccnc1Cl
-5	COc1cc2c(cc1OC)C(c1ccccc1C(F)(F)F)CC(=O)N2 (centres undefined)
3	N#CNC(=Nc1cccc(Cl)c1)Oc1ccccc1
-11	CCCCC(=O)Nc1ccc2c(c1)OCCO2
-4	Cc1cc2c(cc1S(=O)(=O)NCc1ccccc1)NC(=O)CO2
-7	COc1ccc(CN(C)CC(=O)NC(C)c2ccccc2)cc1OC (centres undefined)
-15	CC(C)OCCCNC(=O)NC12CC3CC(CC(C3)C1)C2
-16	CC(OC(=O)C1CC(=O)N(Cc2ccccc2)C1)C(=O)Nc1ccc(F)cc1Cl (centres undefined)
4	Cc1cc(N2C(=O)C3C4CCC(C4)C3C2=O)no1 (centres undefined)
2	COc1cccc(N2CCN(C(=O)c3ccc(=O)oc3)CC2C)c1 (centres undefined)
-8	CCc1c(C(=O)N/N=C/c2ccsc2)csc1C
7	Cc1cc(C)nc(SCCC(=O)N2CCOCC2)n1
-1	CCn1c(SCC(=O)Nc2c(C)n(C)n(-c3ccccc3)c2=O)nnc1-c1cccc(C)c1
-29	CS(=O)(=O)N1CCN(c2ccccc2NC(=O)c2ccc3ccccc3c2)CC1
-21	Cc1ccc(C(=O)N2CCN(CCNC(=O)C(=O)NCc3ccc(Cl)cc3)CC2)cc1

Continuation.
OX1R antag	SMILES
-9	O=C(CN1C(=O)C2(OCCO2)c2cc(Br)ccc21)NO
-20	Cc1c(NC(=O)CN2CCCc3ccccc32)c(=O)n(-c2ccccc2)n1C
12	C[C@@H]1CCC[C@@]2(O[C@H](CCO)C[C@H](O)[C@H]2O)O1
-23	O=C(NNC(=O)c1n[nH]c(=O)c2ccccc12)c1ccc(Br)cc1
-7	Cc1ccc(Nc2nc(/N=C/N(C)C)n[nH]2)cc1C
-11	c1ccc(Nc2c3c(nc4ccccc24)CCC3)cc1
-3	CN1CC[C@@]2([C@@]34CCN(C)C3Nc3ccccc34)c3ccccc3NC12 (some centres undefined)
-7	CCN(CC)CCN(Cc1cc2cc3c(cc2[nH]c1=O)OCO3)C(=S)NCCCN(C)C
-33	O=C(NC(=S)Nc1ccc(Cl)cn1)c1cccs1
-33	Cc1cc(C)c(S(=O)(=O)NCC(c2ccco2)N2CCc3ccccc3C2)c(C)c1 (centres undefined)
-6	CCCNc1nc(NCC)nc(OC)n1
-17	COc1ccc(N2C(=O)CC(Sc3nc(C)c4c(n3)CCCC4)C2=O)cc1 (centres undefined)
-2	CCCn1cc(CN2CCN(Cc3ccc(C)o3)C(CCO)C2)c(C)n1 (centres undefined)
-8	O=C(CSc1nnc2scc(-c3ccccc3)n12)NCC1CCCO1 (centres undefined)
-9	CCC(CC)C(=O)N1CCN(c2cccc(C)c2C)CC1
-16	COc1ccc(CNC(=S)Nc2ccccc2)cc1Cl
-7	CCn1cnc2c1c(=O)n(CC(=O)Nc1ccc(C(N)=O)cc1)c(=O)n2Cc1ccccc1
-16	CCC(=O)NC(NC(=O)CC)C(Cl)Cl
-5	N=C1C(c2ccccc2)=C(O)CN1c1ccccc1N1CCOCC1
-6	CCOC(=O)c1cnc(SCCN2CCOCC2)nc1N
4	CN(C)CCNC(=O)CNC(=S)N(CCCN1CCOCC1)Cc1cccs1
-3	C=CCOc1c(CNc2cccc(C(=O)O)c2)cccc1OCC
-9	CC1CN(C(=S)c2cccc([N+](=O)[O-])c2)CC(C)O1 (centres undefined)
-2	Cn1cnnc1SCC(=O)Nc1ccccc1F
2	Cc1ccc(S(=O)(=O)c2cc(C#N)c(=O)[nH]c2N)cc1
-9	Cc1ccc(NC(=O)Cn2c(=O)n(CCC(=O)NC3CCN(Cc4ccccc4)CC3)c(=O)c3ccccc32)cc1
-8	O=C1c2cccc([N+](=O)[O-])c2C(=O)N1c1c[nH]c(=O)[nH]c1=O
-10	O=C(c1ccc(Cl)c(Cl)c1)N1CCOCC1
-30	COc1ccc(-c2cc(C(F)(F)F)nc(SCC(=O)NCc3ccco3)n2)cc1OC
-15	CCN(CC)CCN1C(=O)c2ccccc2NC1c1ccc(F)cc1 (centres undefined)

Next results
OX1R antag	SMILES
-3	Cc1csc(NC(=O)CSc2nnnn2C)n1
-3	COc1cc(NS(=O)(=O)c2csc(C(N)=O)c2)cc(OC)c1
-26	O=c1cc(CSc2nnc(COc3ccc(Cl)cc3)o2)c2ccccc2[nH]1
-6	O=c1c2ccccc2ncn1-c1ccc(Cl)c(Cl)c1
-4	Cc1ccc(S(=O)(=O)NCCC(=O)NC(C)c2ccccc2)cc1 (centres undefined)
-22	COc1cc(C)nc2nc(SCc3ccccc3)nn12
-2	Cn1c(Cn2cnc3ccccc32)nc2ccccc21
-7	NC(=O)c1ncn([C@@H]2O[C@H](CO)[C@@H](O)[C@H]2O)c1O
-6	C=CCN=C(NC#N)SCCc1ccccc1
-19	O=C(NNc1cccc(Cl)n1)c1cccnc1Cl
-22	COc1ccc(-n2cc(-c3ccc(OC)c(OC)c3)[nH]c2=S)cc1
3	Cc1cc(=O)oc2cc(OCC(=O)N3CCN(C(=O)c4ccco4)CC3)ccc12
-12	COc1ccc(OCCCN(C)Cc2ccccc2)cc1
5	Cc1cc(C)nc(NC(N)=S)n1
-9	O=C(COC(=O)c1cccc(S(=O)(=O)N2CCc3ccccc32)c1)Nc1ccc(Cl)cn1
0	c1cncc(-c2nn3cnnc3s2)c1
-3	S=c1[nH]nc(NCCc2ccccc2)s1
-19	COC(C(=O)N/N=C(\C)CC(=O)Nc1ccc(N(C)C)cc1)c1ccccc1 (centres undefined)
-7	Cc1cc(=O)oc2cc(OCC(=O)Nc3nnc(C4CC4)s3)ccc12
6	CS(=O)(=O)N1CCN(C(=O)Cc2ccc([N+](=O)[O-])cc2)CC1
-31	COc1ccc(N(CC(=O)NC2CCCC2)C(=O)Cn2nnc(-c3ccc(C)cc3)n2)cc1OC
-13	O=C(CCc1ccc(S(=O)(=O)NCc2ccccc2)cc1)NCC1CCCO1 (centres undefined)
-7	c1ccc(-c2nc(-c3ccncc3)n[nH]2)nc1
-9	CC(C)(C)C(=O)CSc1nc(N)cc(=O)[nH]1
15	CCOC(=O)/C=C/C(=O)N1CCc2ccccc21
-12	CCS(=O)(=O)N1CCN(c2nc(-c3ccccc3)cs2)CC1
-12	O=C(O)CCCC(=O)N1N=C(c2ccccc2)CC1c1ccc2c(c1)OCO2 (centres undefined)
-1	O=C(NCCc1ccccc1)c1nc2ncccn2n1
-14	N#Cc1c(N)c(C(=O)c2ccc(Cl)cc2)n2c1CCC2
-26	COc1ccc(C(c2nnnn2Cc2cccs2)N2CCN(c3ccccc3F)CC2)cc1OC (centres undefined)

Next records
OX1R antag	SMILES
-26	CCC(C)Sc1ccc([C@@H]2[C@@H]3C(=O)N(C)C(=O)[C@@H]3[C@]3(C(=O)OC)CCCCN23)cc1OC (some centres undefined)
-38	CN(CCOc1ccccc1)c1ccc(S(=O)(=O)N2CCCCC2)cn1
30	O=S(Cc1ccc(Br)cc1)Cc1nnc(SCc2ccc(Cl)cc2)n1-c1ccccc1 (centres undefined)
-30	CSc1cc(-c2ccccc2)n(C)c(=O)c1C#N
-25	O=C(CCSc1ccccc1)N1CCCC1
1	O=C(O)c1cc(C(F)(F)F)nc2c(C(F)(F)F)cccc12
-8	CCc1nnc(NS(=O)(=O)c2ccc(N3C(=O)C4CC=C(Cl)CC4C3=O)cc2)s1 (centres undefined)
-6	Cc1nnsc1C(=O)N/N=C/c1ccccc1Cl
-24	O=C(c1ccco1)N1CCN=C1SCc1cccc(F)c1
-30	Cc1ccc2nc(C)cc(C(=O)N3CCCC(CO)(Cc4ccccc4C)C3)c2c1 (centres undefined)
-16	O=C(/C=C/c1ccc(F)cc1)NCCNC(=O)/C=C/c1ccc(F)cc1
-17	O=C(CN1CCN(Cc2ccccc2)CC1)Nc1ccc(N2CCOCC2)cc1
-19	Cn1c(SCc2nc3ccccc3c(=O)[nH]2)nnc1-c1ccco1
-20	O=C(CCNc1ccccc1)c1ccc2c(c1)OCO2
-2	CN(C)c1ccc(C2CC(=O)NC3=C2C(=O)CC(C)(C)C3)cc1 (centres undefined)
1	COc1ccc(CCNC(=O)CCN2C(=O)COc3ccccc32)cc1OC
-21	O=C(c1cc(-c2ccc(Br)cc2)nc2ccccc12)N1CCC1

Quoted from the listing.
CN(C)c1ccc(C2CC(=O)NC3=C2C(=O)CC(C)(C)C3)cc1 (centres undefined) in OX1R antag is entered as -2
Cc1nnsc1C(=O)N/N=C/c1ccccc1Cl in OX1R antag is entered as -6

In the list so far, 16 contain an NH in an aromatic ring.
OX1R antag	SMILES
-7	Cc1nc(NCc2ccccc2)c2cc[nH]c2n1
13	Cc1ccc2c(C(=O)CN3CCCC3)c(C)[nH]c2c1
-27	CCCCc1cc(C)c(S(=O)(=O)c2ccccc2C)c(=O)[nH]1
-5	O=c1[nH]nnc2c1sc1nc(N3CCOCC3)c3c(c12)CCCC3
-21	S=c1[nH]nc2c3c4c(sc3ncn12)CCCC4
-23	O=C(NNC(=O)c1n[nH]c(=O)c2ccccc12)c1ccc(Br)cc1
-7	Cc1ccc(Nc2nc(/N=C/N(C)C)n[nH]2)cc1C
-7	CCN(CC)CCN(Cc1cc2cc3c(cc2[nH]c1=O)OCO3)C(=S)NCCCN(C)C
2	Cc1ccc(S(=O)(=O)c2cc(C#N)c(=O)[nH]c2N)cc1
-8	O=C1c2cccc([N+](=O)[O-])c2C(=O)N1c1c[nH]c(=O)[nH]c1=O
-26	O=c1cc(CSc2nnc(COc3ccc(Cl)cc3)o2)c2ccccc2[nH]1
-22	COc1ccc(-n2cc(-c3ccc(OC)c(OC)c3)[nH]c2=S)cc1
-3	S=c1[nH]nc(NCCc2ccccc2)s1
-7	c1ccc(-c2nc(-c3ccncc3)n[nH]2)nc1
-9	CC(C)(C)C(=O)CSc1nc(N)cc(=O)[nH]1
-19	Cn1c(SCc2nc3ccccc3c(=O)[nH]2)nnc1-c1ccco1
